Screening results deposited in PubChem BioAssay by several laboratories.
PABP FP inh: blocks human PABP binding to poly(A) RNA; inhibition, % at 35 µM; fluorescence polarization; actives 1% (n = 290,000); P11940;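 active means 50% or more with normal probe brightness, or confirmed in later tests; inconclusive means above 50% with abnormal brightness, or retests that disagree; inactive means below 50% or failed in later tests; about a fifth of its hits are not listed in these tables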;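 further: calls also rest on retests at 20 µM and on dose response follow-up; controls were probe without protein and protein plus probe with vehicle; some compounds called inactive have numbers as strong as hits; many hits fall short of the cut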
Target sequence (P11940 whole entry, looked up): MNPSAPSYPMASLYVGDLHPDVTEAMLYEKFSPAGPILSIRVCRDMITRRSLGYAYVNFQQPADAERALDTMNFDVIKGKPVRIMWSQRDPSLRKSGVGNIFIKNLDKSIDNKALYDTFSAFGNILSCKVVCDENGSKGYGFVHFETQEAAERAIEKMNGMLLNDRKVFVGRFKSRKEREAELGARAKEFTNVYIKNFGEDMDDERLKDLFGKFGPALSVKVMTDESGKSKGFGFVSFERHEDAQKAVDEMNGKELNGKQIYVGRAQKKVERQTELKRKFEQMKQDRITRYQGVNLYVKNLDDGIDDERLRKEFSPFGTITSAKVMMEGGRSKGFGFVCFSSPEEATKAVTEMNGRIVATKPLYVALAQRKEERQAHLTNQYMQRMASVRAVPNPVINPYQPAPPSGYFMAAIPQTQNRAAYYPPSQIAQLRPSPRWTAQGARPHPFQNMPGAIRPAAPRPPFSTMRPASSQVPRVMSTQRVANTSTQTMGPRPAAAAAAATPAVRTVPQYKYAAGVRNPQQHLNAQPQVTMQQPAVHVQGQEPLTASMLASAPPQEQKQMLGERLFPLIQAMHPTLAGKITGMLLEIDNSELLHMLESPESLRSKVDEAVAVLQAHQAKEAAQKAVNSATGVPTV
MT1-MMP act inh: MT1-MMP (human) activation inhibition; HT1080 RFP-PRO-GFP cells, GFP/RFP ratio fluorescence, overnight; percent of plate control window, DMSO zero; actives 0.061% (n = 360,000); GFP/RFP ratio change, % at 20 µM;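 active means GFP/RFP ratio change of at least 30% with cell ATP level not reduced by more than half and red fluorescence within 50% of control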; further: strong numbers were not always called active
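Assay system: HT1080 RFP-PRO-GFP cells. Benchmarks: DMSO vehicle wells and RFP-L50D-GFP reporter cell wells. Times: overnight cell settling, then overnight compound exposure, 37 °C, 5% CO2. Compound: 20 µM single dose, 1% DMSO. Read-out basis: GFP/RFP fluorescence ratio.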
CSC inhib: cancer stem cell inhibition; inhibition, % at 7.5 µM; cancer stem cell-like cells viability, luminescence; AID 2717; actives 1.1% (n = 300,000);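 active means mean at 75% or more and at least half the replicates too; inconclusive means mean and replicates disagree; tested in HMLE shEcad cells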;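 further: 0% = median of negative and 100% = median of positive control wells; the first replicate is given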
HIV Env fusion: blocks HIV Env-driven cell-cell fusion; HeLa-JRFL Env/CEM21 cell fusion, luciferase; inhibition, % at 12.3 µM; actives 1.1% (n = 360,000); AID 651610;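 active means mean replicate inhibition score of at least 50 and every replicate individually at or above 50; inconclusive means only one of the two criteria met; inactive means mean below 50 and not all replicates reaching 50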;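 further: 0% = plate neutral controls and 100% = maraviroc near 300 nM; one replicate is shown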
Rce1 inhib: yeast Ras-converting enzyme inhibition; Q03530; yeast membranes, quenched prenylated peptide cleavage fluorescence; calls only; actives 0.27% (n = 290,000); AID 2563;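 active means fall in fluorescence gain of 50% or more versus controls, with final raw signal at or below 3038400; inconclusive means same 50% fall but final raw signal above 3038400; inactive means fall in fluorescence gain under 50%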;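 further: plate controls were neutral control wells for no effect and wells lacking membranes for full effect; tested at 10 µM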
Target sequence (Q03530 whole entry, looked up): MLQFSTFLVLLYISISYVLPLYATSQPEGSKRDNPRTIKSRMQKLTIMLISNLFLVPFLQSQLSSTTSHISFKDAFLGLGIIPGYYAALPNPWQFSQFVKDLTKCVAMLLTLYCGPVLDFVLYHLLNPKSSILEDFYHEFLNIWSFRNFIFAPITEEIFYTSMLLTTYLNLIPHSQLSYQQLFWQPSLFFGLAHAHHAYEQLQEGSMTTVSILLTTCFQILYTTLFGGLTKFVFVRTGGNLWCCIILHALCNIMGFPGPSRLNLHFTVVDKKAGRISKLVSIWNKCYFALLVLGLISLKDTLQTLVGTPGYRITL
eIF4H inh: inhibitors of RNA binding by human eIF4H. Q15056. eIF4H fluorescence polarization binding assay. inhibition, % at 35 µM. actives 0.94% (n = 290,000). AID 2012;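 active means 50% or more with normal probe brightness, or confirmed in later tests; inconclusive means above 50% with abnormal brightness, or retests that disagree; inactive means below 50% or failed in later tests; about a fifth of its hits are not listed in these tables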;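 further: calls also rest on retests at 20 µM and on dose response follow-up; 0% = protein and probe with vehicle and 100% = probe without protein; strong numbers were not always called active; many hits fall short of the cut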
UUG fidelity: yeast start codon fidelity modulation | S. cerevisiae UUG-firefly luciferase reporter, luminescence/redox ratio | activity score, % at 18.7 µM | actives 0.13% (n = 350,000) | AID 602363;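 active means replicate mean at a twofold rise or more, about +100% in these data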;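 further: firefly luciferase made from a UUG start codon reports start codon fidelity; reporter light over untreated wells divided by growth signal over untreated wells; some hits fall short of that in this replicate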
MT1-MMP act inh RFP: second read-out of MT1-MMP act inh, no call of its own (marks repeat the call); RFP signal change, %; measured here: RFP expression control read;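 0 = vehicle wells; hits needed this value within 50% of zero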
Active calls of the source: *; & = joins results of further samples.

`CCCn1c(NC(=O)c2ccc(Br)cc2)nc2ccccc21` gave PABP FP inh 0, MT1-MMP act inh 2, HIV Env fusion 6, Rce1 inhib inactive, eIF4H inh -4, UUG fidelity -17 and MT1-MMP act inh RFP 3.
Screening Cc1ccc(C(=O)NCCCNC(=O)COc2ccccc2Cl)cn1 returned PABP FP inh 8, MT1-MMP act inh -1, CSC inhib -10, HIV Env fusion 1, Rce1 inhib inactive, eIF4H inh 4, UUG fidelity -9 and MT1-MMP act inh RFP 1.
CS(=O)(=O)NC1c2cccc3cccc(c23)C1N1CCOCC1 (stereo unspecified) was read as PABP FP inh 9, MT1-MMP act inh -1, CSC inhib -14, Rce1 inhib inactive, eIF4H inh -4, UUG fidelity -6 and MT1-MMP act inh RFP 2.
Screening CCn1c(C(=O)N2CCc3ccccc3C2)cc2oc3ccccc3c21 returned PABP FP inh 0, MT1-MMP act inh 6, CSC inhib 21, HIV Env fusion -32, Rce1 inhib inactive, eIF4H inh -2, UUG fidelity -17 and MT1-MMP act inh RFP 1.
Cn1cnnc1SCC(=O)Nc1ccc(OC(F)F)cc1 was read as PABP FP inh -2, MT1-MMP act inh 0, CSC inhib -8, HIV Env fusion -4, Rce1 inhib inactive, eIF4H inh -7 and MT1-MMP act inh RFP 0.
Screening COc1ccc(CNC(=O)CN2C(=O)NC(C)(c3ccc(Cl)cc3)C2=O)cc1 (stereo unspecified) returned PABP FP inh -12, MT1-MMP act inh 5, CSC inhib -4, HIV Env fusion 15, Rce1 inhib inactive, eIF4H inh -3, UUG fidelity -2 and MT1-MMP act inh RFP 3.
CSc1sc(C(=O)OC(C)C)c2c1C(=O)CC(C)(C)C2 was read as PABP FP inh -4, MT1-MMP act inh -1, CSC inhib -13, HIV Env fusion 17, Rce1 inhib inactive, eIF4H inh -9, UUG fidelity 14 and MT1-MMP act inh RFP -2.
Screening COc1ccc(-c2nnn(CC(=O)NCc3ccccc3)n2)cc1OC returned PABP FP inh -5, MT1-MMP act inh 3, HIV Env fusion 1, Rce1 inhib inactive, eIF4H inh 8, UUG fidelity -20 and MT1-MMP act inh RFP -4.
`CC(C)CC1NC(=O)N(CC(=O)Nc2cc(S(=O)(=O)N3CCOCC3)ccc2Cl)C1=O` (stereo unspecified) gave MT1-MMP act inh -1, CSC inhib -6, UUG fidelity 7 and MT1-MMP act inh RFP 3.
`CCN(CC(=O)Nc1cc(Cl)ccc1C)C(=O)c1ccc2c(=O)n3c(nc2c1)CCC3` gave MT1-MMP act inh 1, CSC inhib 7, HIV Env fusion 16, Rce1 inhib inactive, UUG fidelity 16 and MT1-MMP act inh RFP 5.
O=C(O)CCNS(=O)(=O)c1ccc2c(c1)CCCC2 was read as PABP FP inh -1, MT1-MMP act inh 6, CSC inhib -11, HIV Env fusion 1, Rce1 inhib inactive, eIF4H inh 5, UUG fidelity -16 and MT1-MMP act inh RFP 5.
Screening O=C(CC1SC(N2CCCC2)=NC1=O)Nc1ccc(C(=O)NCc2ccc(F)cc2)cc1 (stereo unspecified) returned MT1-MMP act inh 9, HIV Env fusion -6, UUG fidelity -24 and MT1-MMP act inh RFP 6.
COc1ccc(C(C(=O)NCC2CCCO2)N(C(=O)Cn2nnc3ccccc32)c2ccc(NC(C)=O)cc2)cc1OC (stereo unspecified) was read as PABP FP inh -4, MT1-MMP act inh -2, CSC inhib 1, HIV Env fusion -2, eIF4H inh -5, UUG fidelity -8 and MT1-MMP act inh RFP 4.
Screening CCOc1ccc(CCNC(=O)CCCn2nc(C)c3c(C)n(-c4ccccc4)nc3c2=O)cc1 returned PABP FP inh 7, MT1-MMP act inh 3, CSC inhib 1, HIV Env fusion 0, Rce1 inhib inactive, eIF4H inh -16, UUG fidelity -12 and MT1-MMP act inh RFP -3.
CCc1noc(C)c1C(=O)N(CC)CC(=O)NCc1ccc(Cl)cc1 was read as MT1-MMP act inh 5, CSC inhib 6, HIV Env fusion -12, UUG fidelity -18 and MT1-MMP act inh RFP 2.
For COC(=O)C1=C(C)N(C)C(=S)NC1c1ccc(Cl)cc1 (stereo unspecified) the results were PABP FP inh 1, MT1-MMP act inh 5, CSC inhib -14, HIV Env fusion 20, Rce1 inhib inactive, eIF4H inh 5, UUG fidelity 1 and MT1-MMP act inh RFP 3.
O=C(NCCCN1CCOCC1)C(=O)N/N=C/c1ccc2c(c1)OCO2 was read as PABP FP inh 7, MT1-MMP act inh 5, CSC inhib 1, HIV Env fusion 3, Rce1 inhib inactive, eIF4H inh 9, UUG fidelity -11 and MT1-MMP act inh RFP 4.
Cc1ccc(NC(=O)Cc2ccc3c(c2)OCCO3)cc1S(=O)(=O)N1CCCCC1 was read as PABP FP inh 17, MT1-MMP act inh -7, CSC inhib -9, HIV Env fusion 5, Rce1 inhib inactive, eIF4H inh 17, UUG fidelity -7 and MT1-MMP act inh RFP -27.
Screening CC(=O)CSc1nc2ccccc2s1 returned PABP FP inh -7, MT1-MMP act inh 0, CSC inhib 10, HIV Env fusion -18, Rce1 inhib inactive, eIF4H inh -3, UUG fidelity -24 and MT1-MMP act inh RFP 1.
Screening O=C1CC(c2ccco2)CC(O)=C1C=Nc1ccc(Br)cc1 (stereo unspecified) returned PABP FP inh 10, MT1-MMP act inh -5, CSC inhib 22, Rce1 inhib inactive, eIF4H inh 8, UUG fidelity -28 and MT1-MMP act inh RFP -1.

5 entries already listed, ordered by molar mass, ascending:
CS(=O)(=O)NC1c2cccc3cccc(c23)C1N1CCOCC1 (stereo unspecified) was read as PABP FP inh 9, MT1-MMP act inh -1, CSC inhib -14, Rce1 inhib inactive, eIF4H inh -4, UUG fidelity -6 and MT1-MMP act inh RFP 2.
Screening COc1ccc(-c2nnn(CC(=O)NCc3ccccc3)n2)cc1OC returned PABP FP inh -5, MT1-MMP act inh 3, HIV Env fusion 1, Rce1 inhib inactive, eIF4H inh 8, UUG fidelity -20 and MT1-MMP act inh RFP -4.
CCc1noc(C)c1C(=O)N(CC)CC(=O)NCc1ccc(Cl)cc1 was read as MT1-MMP act inh 5, CSC inhib 6, HIV Env fusion -12, UUG fidelity -18 and MT1-MMP act inh RFP 2.
`CC(C)CC1NC(=O)N(CC(=O)Nc2cc(S(=O)(=O)N3CCOCC3)ccc2Cl)C1=O` (stereo unspecified) gave MT1-MMP act inh -1, CSC inhib -6, UUG fidelity 7 and MT1-MMP act inh RFP 3.
Screening CCOc1ccc(CCNC(=O)CCCn2nc(C)c3c(C)n(-c4ccccc4)nc3c2=O)cc1 returned PABP FP inh 7, MT1-MMP act inh 3, CSC inhib 1, HIV Env fusion 0, Rce1 inhib inactive, eIF4H inh -16, UUG fidelity -12 and MT1-MMP act inh RFP -3.

Later entries:
For COc1ccccc1C(OC(=O)c1ccco1)C(=O)NCc1ccc(F)cc1 (stereo unspecified) the results were PABP FP inh -5, MT1-MMP act inh 1, CSC inhib -10, HIV Env fusion 8, Rce1 inhib inactive, eIF4H inh -11, UUG fidelity -2 and MT1-MMP act inh RFP 4.
`COc1ccc(NC(=O)CN(C)C(=O)C(Sc2ccccc2)c2ccccc2)cc1` (stereo unspecified) gave MT1-MMP act inh -3, HIV Env fusion 3, UUG fidelity -2 and MT1-MMP act inh RFP -3.
Screening O=C(Nc1cc2c(oc1=O)CCCC2=O)c1ccccc1 returned PABP FP inh 2, MT1-MMP act inh -5, CSC inhib -5, HIV Env fusion -24, Rce1 inhib inactive, eIF4H inh 10, UUG fidelity -22 and MT1-MMP act inh RFP -7.
For O=C(O)CCCNC(=O)c1ccc(NC(=O)Cc2ccc(Cl)cc2)cc1 the results were PABP FP inh 6, MT1-MMP act inh 2, CSC inhib -10, HIV Env fusion -1, Rce1 inhib inactive, eIF4H inh 8 and MT1-MMP act inh RFP 7.
`O=C(CNC(=O)c1ccc(Cl)cc1)OC1CCOC1=O` (stereo unspecified) gave PABP FP inh 5, MT1-MMP act inh 0, CSC inhib -26, HIV Env fusion 10, Rce1 inhib inactive, eIF4H inh -1 and MT1-MMP act inh RFP 2.
Screening O=C(O)c1ccc(NC(=S)NC(=O)c2cncc(Br)c2)cc1 returned PABP FP inh 8, MT1-MMP act inh -4, CSC inhib -14, HIV Env fusion 22, eIF4H inh -2, UUG fidelity -18 and MT1-MMP act inh RFP -2.
For COc1ccc2c(c1)C(=O)N(c1ccccc1OC)C(=O)C2(C)C the results were PABP FP inh -11, MT1-MMP act inh -2, CSC inhib -4, HIV Env fusion 10, Rce1 inhib inactive, eIF4H inh 3, UUG fidelity -10 and MT1-MMP act inh RFP -4.
Screening O=C(CCc1nc2cccnc2n1Cc1ccccc1)N1CCOCC1 returned PABP FP inh -1, MT1-MMP act inh 4, CSC inhib 3, HIV Env fusion 19, Rce1 inhib inactive, eIF4H inh 1, UUG fidelity -4 and MT1-MMP act inh RFP 5.
For O=C(COc1ccccc1Cl)Nc1ccc2c(c1)OCO2 the results were PABP FP inh 1, MT1-MMP act inh 1, CSC inhib -9, HIV Env fusion -44, Rce1 inhib inactive, eIF4H inh 3, UUG fidelity -12 and MT1-MMP act inh RFP -1.
`N/C(=N\OC(=O)CCCOc1ccccc1)c1ccccn1` gave PABP FP inh 2, MT1-MMP act inh 0, CSC inhib -37, HIV Env fusion -11, Rce1 inhib inactive, eIF4H inh 0, UUG fidelity -15 and MT1-MMP act inh RFP 3.
`CCN(CC)CCCNc1nc(N)c([N+](=O)[O-])c(NCCO)n1` gave PABP FP inh -6, MT1-MMP act inh -2, CSC inhib -7, HIV Env fusion 1, Rce1 inhib inactive, eIF4H inh -2, UUG fidelity -19 and MT1-MMP act inh RFP 0.
`O=C(O)C1C2C=CC(C2)C1C(=O)OCc1ccccc1` (stereo unspecified) gave PABP FP inh -6, MT1-MMP act inh -6, CSC inhib -2, HIV Env fusion -38, Rce1 inhib inactive, eIF4H inh -4, UUG fidelity -23 and MT1-MMP act inh RFP 10.
CC(=O)c1sc(N)nc1C was read as MT1-MMP act inh -1&-2, CSC inhib -1, HIV Env fusion 23&-30, Rce1 inhib inactive, UUG fidelity 14&-12 and MT1-MMP act inh RFP 3&6.
Screening COc1cccc(-n2c(-c3ccc4[nH]c(C)c(C)c4c3)n[nH]c2=S)c1 returned PABP FP inh 4, MT1-MMP act inh 3, HIV Env fusion -14, Rce1 inhib inactive, eIF4H inh 5 and MT1-MMP act inh RFP -4.
CCc1ccccc1NC(=O)CCN1C(=O)c2ccccc2C1=O was read as PABP FP inh 4, MT1-MMP act inh 3, CSC inhib -9, Rce1 inhib inactive, eIF4H inh 5, UUG fidelity -19 and MT1-MMP act inh RFP 3.
`Oc1ccccc1/C=N/Nc1nc2ccccc2o1` gave PABP FP inh -3, MT1-MMP act inh -3, CSC inhib inconclusive, HIV Env fusion -86, Rce1 inhib inactive, eIF4H inh -1, UUG fidelity -33 and MT1-MMP act inh RFP -4.
For Cc1ccc(CNC(=O)CCc2c(C)nc3c(c(C)nn3-c3ccc(C)cc3)c2C)cc1 the results were PABP FP inh 0, MT1-MMP act inh -1, CSC inhib -8, HIV Env fusion 2, Rce1 inhib inactive, eIF4H inh -8, UUG fidelity -14 and MT1-MMP act inh RFP 3.
For Cc1ccc(Cl)cc1N1CCN(C(CC(C)C)c2nnnn2CC2CCCO2)CC1 (stereo unspecified) the results were PABP FP inh 5, MT1-MMP act inh 0, CSC inhib 101*, Rce1 inhib inactive, eIF4H inh 5, UUG fidelity -7 and MT1-MMP act inh RFP -2.
